# Screening results as filed in PubChem BioAssay.
# TRPML1 agonist: activates the human TRPML1 channel; TRPML1-expressing cells, Ca2+ dye fluorescence, FDSS; host cell line not named in the record; reference of the full effect not given here; activation, % (test concentration not listed); hit rate 0.12% among 410,000; AID 624414; in the data active = activation above about 50%; inconclusive = about 30% to 50%; inactive = below about 30%; note: 0% is about no effect; the text of the record puts the active cut at 80%
# Target sequence (Q9GZU1 whole entry, looked up): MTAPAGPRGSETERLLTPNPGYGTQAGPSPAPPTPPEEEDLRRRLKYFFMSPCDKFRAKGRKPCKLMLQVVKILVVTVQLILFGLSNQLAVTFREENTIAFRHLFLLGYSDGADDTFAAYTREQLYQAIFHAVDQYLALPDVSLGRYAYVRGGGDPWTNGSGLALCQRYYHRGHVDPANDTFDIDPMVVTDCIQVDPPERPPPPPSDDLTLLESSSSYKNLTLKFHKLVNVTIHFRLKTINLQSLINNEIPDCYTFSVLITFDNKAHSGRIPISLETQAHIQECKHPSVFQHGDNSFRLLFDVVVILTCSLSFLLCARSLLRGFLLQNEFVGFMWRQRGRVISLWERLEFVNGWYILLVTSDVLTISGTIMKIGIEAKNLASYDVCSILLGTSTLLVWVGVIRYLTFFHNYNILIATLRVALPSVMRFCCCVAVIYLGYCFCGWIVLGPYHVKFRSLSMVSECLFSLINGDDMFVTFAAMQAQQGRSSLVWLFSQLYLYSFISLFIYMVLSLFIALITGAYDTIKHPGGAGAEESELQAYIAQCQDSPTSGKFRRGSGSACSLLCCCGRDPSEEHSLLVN
#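 Tetracycline-induced TRPML1-DL cells are seeded and incubated overnight before loading with a no-wash Ca2+ dye and quencher. Agonist activity is taken from the 110 s fluorescence read following compound pin-transfer on an FDSS, before EC80 54-4 challenge.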
# TRPV1 PAM: potentiators of human vanilloid receptor 1 (TRPV1); hit rate 0.02% among 320,000; TRPV1-expressing cells, Fluo-8 calcium influx, capsaicin EC20 potentiation; host cell line not named in the record; control for the full effect not named in the record; AID 540277; Q8NER1; potentiation, % at 8.33 µM; active means potentiation above 80%; inconclusive means 30% to 80%; inactive means below 30%; note: 0% is about no effect
#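 Fluo-8 calcium influx in TRPV1-expressing cells, kinetic read (ex 480/em 520 nm). Compound added and read 3 min for agonist activity, followed by capsaicin at EC20 final and 2 min further read for enhancement.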
# Six1-Eya2 blk: blocks human Six1 binding to Eya2; Q15475+O00167; AlphaScreen GST-Six1/His-Eya2 binding, biochemical; hits give low values; control for the full effect not named in the record; activity change, % (test concentration not listed); hit rate 0.56% among 360,000; AID 651725; in the data active = activity change below about -65%; inconclusive = about -30% to -65%; inactive = above about -30%; note: % is set by controls: 0 for no effect and ±100 for the full control effect; compound concentration not given in the record
#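 Six1/Eya2 binding was read as AlphaScreen signal after compounds were pinned into GST-Six1 plus His-tagged Eya2 (5X stock 250/500 nM) in pH 8.0 Tris/NaCl/TCEP buffer, beads added, then incubated 1 h, 37 C, dark.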
# CtBP-E1A blk: CtBP/E1A binding inhibition; AlphaScreen GST-E1A/His-CtBP binding, 1536-well; hits give low values; control for the full effect not named in the record; activity change, % (concentration not given with the values); hit rate 0.49% among 340,000; AID 651724; in the data active means activity change below about -65%; inconclusive means about -30% to -65%; inactive means above about -30%; note: % is set by controls: 0 for no effect and ±100 for the full control effect
#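 Protein mix (5X: 125 nM each GST-E1A, His-CtBP) was incubated with pinned compound 2 h at 37 deg C in dark, in 50 mM Tris pH 8.0 buffer with 300 mM NaCl. Glutathione donor and nickel acceptor beads followed; AlphaScreen signal read after 1 h.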
# TRPML1 inh: inhibitors of human TRPML1 channel. Q9GZU1. TRPML1-inducible cells, Ca2+ dye fluorescence, FDSS; hits give low values; inhibition of EC80 agonist-evoked calcium signal. activity change, negative = inhibition, % (test concentration not listed). hit rate 0.02% among 390,000; in the data active means activity change below about -50%; inconclusive means about -30% to -50%; inactive means above about -30%;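 note: stimulus is agonist 54-4 at its EC80 concentration; % is set by controls: 0 for no effect and ±100 for the full control effect; compound concentration not given in the record; the text of the record puts the active cut at -80%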
#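 Calcium fluorescence in TRPML1-DL cells induced overnight with Tet: a 110 s read after compound pin addition, then a 110 s antagonist read after challenge with 54-4 at 4 uM final (EC80).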
# D2 PAM: human D2 receptor positive allosteric modulation. hit rate 0.23% among 360,000. AID 624464. DiscoveRx D2 beta-arrestin cells, luminescence, 90 min; 100% = 57 uM dopamine signal. potentiation, % (no concentration beside the values); active = potentiation of 50% or more; inconclusive = 30% to 50%; inactive = 30% or less;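 note: compound concentration not given in the record; tested on top of an EC20 dose of dopamine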
# Target sequence (P14416 whole entry, looked up): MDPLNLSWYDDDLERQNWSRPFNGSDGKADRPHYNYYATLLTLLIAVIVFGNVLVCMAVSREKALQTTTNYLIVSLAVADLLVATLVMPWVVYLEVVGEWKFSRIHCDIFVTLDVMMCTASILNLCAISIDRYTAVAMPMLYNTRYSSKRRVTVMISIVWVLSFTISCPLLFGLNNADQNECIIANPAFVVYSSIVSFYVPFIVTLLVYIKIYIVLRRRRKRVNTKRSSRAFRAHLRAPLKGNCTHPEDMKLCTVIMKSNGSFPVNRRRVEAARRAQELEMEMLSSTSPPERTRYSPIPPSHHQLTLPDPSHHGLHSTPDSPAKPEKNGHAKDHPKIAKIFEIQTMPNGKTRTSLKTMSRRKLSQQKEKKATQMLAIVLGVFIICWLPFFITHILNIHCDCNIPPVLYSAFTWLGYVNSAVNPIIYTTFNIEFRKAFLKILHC
#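 D2 cells co-treated with compound plus 50 nM dopamine (EC20) for 90 min at 37 deg C to detect potentiation. Beta-arrestin recruitment was read as enzyme-fragment luminescence after 1 h at ambient temperature. Full response was set by 57 uM dopamine.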
# The depositor's hits bear a star; ? = inconclusive; . = no result given.
SMILES,TRPML1 agonist,TRPV1 PAM,Six1-Eya2 blk,CtBP-E1A blk,TRPML1 inh,D2 PAM
Cc1cc2ncc(-c3ccccc3)nc2cc1C,2.0,-13,8,.,5,-2
CNC(=O)c1ccsc1NC(=O)CCS(=O)(=O)c1ccc(C)cc1,1.0,3,10,-16,-7,-2
COc1ccc(C(C)=O)cc1CSCCC#N,0.1,1,2,3,-3,-26
O=C(NCc1ccco1)/C(=C/c1ccc([N+](=O)[O-])cc1)NC(=O)c1ccco1,0.9,-1,-1,4,-9,8
O=C(CN1CCN(c2ccc(F)cc2)CC1)N1CCC(Cc2ccccc2)CC1,0.7,0,-3,-3,29,-20
c1c2c(cc3sc(N4CCOCC4)nc13)OCCO2,-0.4,-3,0,4,9,-1
COc1cc(OC)cc(-c2nnc(NC(=O)Cc3ccc(F)cc3)o2)c1,0.0,12,-2,3,-1,-6
CN(Cc1ccccc1)S(=O)(=O)c1ccc(Cl)c(C(=O)NCc2cccnc2)c1,-0.2,?,-4,-23,-2,-6
O=C(NC(=S)Nn1cnnc1)c1ccccc1Cl,0.2,-8,4,9,10,-9
Cc1ccc(C(=O)Nc2ccc(C(=O)OCc3cc(=O)n4ccsc4n3)cc2)cc1,0.9,8,.,.,3,.
COc1ccc(COCCN2CCN(S(=O)(=O)c3ccc(C)cc3)CCC2=O)cc1,0.1,5,-1,-1,13,-13
CC(=O)OCc1nc2sc3c(c2c(=O)[nH]1)CCCC3,0.4,-22,2,7,-7,20
COc1ccc(N(CC(=O)NCC2CCCO2)S(=O)(=O)c2ccccc2)cc1OC (stereo not drawn),-0.3,-1,0,4,-6,-5
COC(C(=O)Nc1cccc([N+](=O)[O-])c1)c1ccccc1 (stereo not drawn),0.7,0,1,3,12,-1
COc1ccc(N2CCN(C3CCCN(Cc4cccc(OC)c4)C3)CC2)cc1 (stereo not drawn),-0.1,-5,-16,-24,25,-16
COc1ccc(-c2oc3ccc(-c4cc(OC)c(OC)c(OC)c4)cc3c2C#Cc2ccccn2)cc1,0.0,.,-2,5,23,-3
COc1cccc(Nc2nc(CN3CCOCC3)nc3sc4c(c23)CCCC4)c1,-0.3,-22,-20,0,-7,-31
CN(C)S(=O)(=O)c1ccc(C(=O)NCC(=O)N/N=C/c2cccs2)cc1,-0.8,-13,0,.,-7,3
CCOCCCNC(=O)CCn1nc(-c2ccc(Cl)cc2)ccc1=O,-0.3,-9,16,.,-3,-5
COCCCNC(=O)c1csc([C@@H]2O[C@H](CO)[C@H](O)[C@H](O)[C@H]2O)n1,0.0,.,0,-6,.,-12
O=C(Nc1nc(-c2cc3ccccc3oc2=O)cs1)c1ccc(Br)o1,0.0,-10,8,9,5,-3
O=C(CSc1n[nH]c(-c2ccncc2)n1)Nc1ccc(Br)cc1,1.0,-7,-2,5,-15,-32
COCC(=O)/C=C1\Sc2ccccc2N1C,-0.4,-5,-3,6,9,-1
Cc1c(C(=O)Nc2cc(F)ccc2F)sc2nc3n(c(=O)c12)CCCCC3,0.8,-24,6,6,13,2
CC(C)c1ccc(NC(=O)C(=O)c2cn(CC(=O)N3CCCCC3)c3ccccc23)cc1,1.7,-1,-3,-2,-1,1
CCC(=O)Nc1ccc(NC(=O)c2ccco2)c(OC)c1,-0.9,-3,-3,-2,-5,-3
COc1ccc(C(=O)N2CCCC(Nc3ccc(F)c(F)c3)C2)c(OC)n1 (stereo not drawn),-0.6,5,-1,9,5,-3
CCNC(=O)N(C)c1nncnc1C(=O)NC,1.5,1,2,0,-2,-4
CN(C(=O)C1CCOC1)c1nnc(-c2cnccn2)s1 (stereo not drawn),-0.6,.,-4,2,-8,-13
COc1ccc(CCn2c(N)c(C(=O)NCc3ccco3)c3nc4ccccc4nc32)cc1,0.5,-2,-13,-15,-10,2

# Profiles, quoted from the list. Values in the order: TRPML1 agonist, TRPV1 PAM, Six1-Eya2 blk, CtBP-E1A blk, TRPML1 inh, D2 PAM
# Listed for `CCC(=O)Nc1ccc(NC(=O)c2ccco2)c(OC)c1` = -0.9, -3, -3, -2, -5, -3
# Listed for `O=C(Nc1nc(-c2cc3ccccc3oc2=O)cs1)c1ccc(Br)o1` = 0.0, -10, 8, 9, 5, -3
# Listed for `COc1ccc(-c2oc3ccc(-c4cc(OC)c(OC)c(OC)c4)cc3c2C#Cc2ccccn2)cc1` = 0.0, ., -2, 5, 23, -3

# 3 entries from above, field by field:
> COc1ccc(CCn2c(N)c(C(=O)NCc3ccco3)c3nc4ccccc4nc32)cc1
  TRPML1 agonist: 0.5
  TRPV1 PAM: -2
  Six1-Eya2 blk: -13
  CtBP-E1A blk: -15
  TRPML1 inh: -10
  D2 PAM: 2
> CCNC(=O)N(C)c1nncnc1C(=O)NC
  TRPML1 agonist: 1.5
  TRPV1 PAM: 1
  Six1-Eya2 blk: 2
  CtBP-E1A blk: 0
  TRPML1 inh: -2
  D2 PAM: -4
> CN(C(=O)C1CCOC1)c1nnc(-c2cnccn2)s1 (stereo not drawn)
  TRPML1 agonist: -0.6
  TRPV1 PAM: .
  Six1-Eya2 blk: -4
  CtBP-E1A blk: 2
  TRPML1 inh: -8
  D2 PAM: -13

# The listing continues.
SMILES,TRPML1 agonist,TRPV1 PAM,Six1-Eya2 blk,CtBP-E1A blk,TRPML1 inh,D2 PAM
CCOc1ccccc1NC(=O)CCNS(=O)(=O)c1cccc2nsnc12,-0.6,18,5,3,29,1
CC(C)[C@H](NC(=O)N1CCn2c1nc1ccccc12)C(=O)NCC1CCCO1 (stereo partly drawn),0.1,3,3,2,-11,-1
Cc1nc(CSc2ccc(Cl)cc2)cc(N2CC(C)OC(C)C2)n1 (stereo not drawn),1.5,-10,2,4,14,1
O=C(NN1C(=O)C2C(c3ccccc3)C=CC(c3ccccc3)C2C1=O)c1ccncc1 (stereo not drawn),0.1,-8,-3,8,15,-3
CCN(CC)c1ccc(-c2n[nH]c(=S)n2-c2ccccc2C)cc1,1.0,3,-11,-5,17,-9
Cc1ccc2sc(NC(=O)CN3C(=O)CCC3=O)nc2c1C,-0.4,-5,3,0,-3,-4
O=C(/C=C/c1c(F)cccc1Cl)NCCCN1CCOCC1,0.1,-5,3,6,-6,-27
CC1CC(C)CN(C(=O)CN2C(=O)NC3(CCCCCC3)C2=O)C1 (stereo not drawn),0.0,.,2,10,4,-6
CCc1ccccc1NS(=O)(=O)c1ccc2c(c1)NC(=O)CC(=O)N2,1.6,?,12,4,-16,-9
O=C(CCN1C(=O)COc2ccccc21)NCCCN1CCc2ccccc2C1,-0.3,-6,0,3,-2,-21
COc1ccc(/C=C/C(=O)NCC(=O)N/N=C(\C)Cc2ccccc2)cc1,0.8,0,13,7,7,-5
O=C1C(=O)N(Cc2cccnc2)C(c2cccc(F)c2)/C1=C(/O)c1ccc2c(c1)OCO2 (stereo not drawn),0.4,0,3,-1,-4,-5
CCCCn1c(N)c(N(CC(C)C)C(=O)c2ccc3c(c2)NC(=O)C(C)S3)c(=O)[nH]c1=O (stereo not drawn),-0.7,-2,2,2,8,9
CCNC(=O)C1(C)CCN(C(=O)c2c(F)cccc2F)C1 (stereo not drawn),0.4,.,3,5,-7,-14
COc1ccc(C(=O)NCc2cnn(C)c2)cc1OC1CCN(C(C)C)CC1,-0.3,9,1,10,3,-2

# Entries shown so far containing a thiophene ring, fused or not (five):
SMILES,TRPML1 agonist,TRPV1 PAM,Six1-Eya2 blk,CtBP-E1A blk,TRPML1 inh,D2 PAM
CNC(=O)c1ccsc1NC(=O)CCS(=O)(=O)c1ccc(C)cc1,1.0,3,10,-16,-7,-2
CC(=O)OCc1nc2sc3c(c2c(=O)[nH]1)CCCC3,0.4,-22,2,7,-7,20
COc1cccc(Nc2nc(CN3CCOCC3)nc3sc4c(c23)CCCC4)c1,-0.3,-22,-20,0,-7,-31
CN(C)S(=O)(=O)c1ccc(C(=O)NCC(=O)N/N=C/c2cccs2)cc1,-0.8,-13,0,.,-7,3
Cc1c(C(=O)Nc2cc(F)ccc2F)sc2nc3n(c(=O)c12)CCCCC3,0.8,-24,6,6,13,2

# (list continues)
SMILES,TRPML1 agonist,TRPV1 PAM,Six1-Eya2 blk,CtBP-E1A blk,TRPML1 inh,D2 PAM
CCOc1ccc(N(CC(=O)NN=C2CCN(C)CC2)S(=O)(=O)c2ccc(Br)cc2)cc1,0.2,-4,9,-4,18,-15
Cc1ccccc1OCC(=O)N/N=C/c1cccc2cccnc12,0.4,-30,-76*,-13,-5,2
CCOc1cc(OCC)cc(C(=O)NCc2ccco2)c1,-0.2,-13,3,-3,-11,7
Brc1cccc2sc(N3CCN(c4ccccc4)CC3)nc12,0.6,15,5,-1,-22,-6
Cc1ccnc(N/C=C/C(=O)c2ccc(Br)cc2)c1,1.7,17,5,9,18,-5
Cc1ccc(-n2c3c(c(=O)[nH]c2=S)C(C(F)(F)F)(C(F)(F)F)NC(=O)N3)cc1,2.2,8,-1,9,17,-4
CC(C)Cn1nc(C(=O)Nc2nnc(C3CC3)s2)c2ccccc2c1=O,1.5,-4,3,.,53,-1
Cc1noc(C)c1S(=O)(=O)N1CCC(C(=O)c2ccccc2)CC1,-0.5,-4,14,1,-11,2
CCOC(=O)C1CCN(S(=O)(=O)CCNC(=O)c2ccc(F)cc2)CC1,0.2,0,5,10,-3,5
Cn1c(=O)n(C)c2cc(C(N)=O)ccc21,1.3,4,-3,-10,10,-2
CCCCCCN1CCN(C2CN(Cc3cn(Cc4ccc(Cl)cc4)nn3)S(=O)(=O)C2)CC1 (stereo not drawn),-0.5,.,-11,-7,.,.
COc1ccc(CNS(=O)(=O)NCc2ccccc2F)cc1,1.5,15,11,-2,7,-8
CC1CCCN(C2(O)C(=O)Nc3ccc(Cl)cc32)C1 (stereo not drawn),3.8,5,-1,.,14,-6
COc1cccc(C2/C(=C(\O)c3ccc4c(c3)OCCO4)C(=O)C(=O)N2CCCN2CCOCC2)c1OC (stereo not drawn),-0.2,4,0,2,0,-2
Cc1ccnc(N2CCCC(C(=O)Nc3nnc(C)s3)C2)n1 (stereo not drawn),0.1,2,-1,-4,9,-7
COc1ccc(Cl)c(NC(=O)Nc2c(C)n(-c3ccccc3)c(=O)n2C)c1,1.7,8,6,-2,-14,-21
CCOc1ccc(N(CC(=O)N/N=C/c2ccc(OC(C)C)cc2)S(C)(=O)=O)cc1,3.2,13,-3,-3,41,-6
COc1cc2c(OC)cccc2cc1C(=O)O,0.1,-4,-1,0,8,-2
C/C(=N\NC(=O)c1ccn(C)n1)c1cccc(NC(=O)c2ccncc2)c1,0.3,1,-2,0,-11,-2
COc1ccc(Cc2nc3ccc(C(=O)N4CCCC4)cc3o2)cc1,1.1,5,-13,-6,2,0
CC(=O)Nc1ccc(-c2ccc3nnc(C)n3n2)cc1,-0.7,2,-11,-3,-4,11
COc1ccc(-c2ccc(C(=O)N3CCN(C)CC3)c3occc23)c(C)c1,-0.3,.,-4,3,.,-14
COc1ccc(OC)c(NC(=O)CSc2nc3cccnc3n2C)c1,-0.6,-20,-5,-3,-13,-1
Cc1ccc(NC(=S)NCCc2ccccc2)nc1,3.7,-5,-12,-4,19,-12
COc1cc(OC)cc(-c2cc3nc4c(c(N5CCN(c6ncccn6)CC5)n3n2)CCCC4)c1,0.4,2,?,4,3,-18
CCNc1nc(SCC(=O)Nc2ccccc2)nc(N2CCOCC2)n1,-1.1,-3,6,4,1,4

# No enrichment for hits; about 0.95% have a hit in one of these screens.
